High-throughput results as filed in PubChem BioAssay.
Measles inh – inhibitors of measles virus growth in infected cells | hit rate 0.1% among 33,000 | z-score (test concentration not listed) | infected Vero cells, GFP fluorescence, 64 h; stronger effect = lower value | AID 745;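 active = z-score under -3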;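 note: score is relative to mean and SD of the compound wells of a plate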
* hit, by the source's call. The list is partial; count on the stated rates, not on these rows.

Start of the listing, in advance, two compounds:
Measles inh,Molecule
1.39,O=C(c1ccc2c(=O)n(C3CCCCC3)c(SCc3cccc(Cl)c3)nc2c1)N1CCOCC1
-1.01,Oc1ccccc1C1=Nc2ccccc2N=C(c2cccc(Br)c2)C1

The whole of this part, previewed entries included:
Measles inh,Molecule
1.39,O=C(c1ccc2c(=O)n(C3CCCCC3)c(SCc3cccc(Cl)c3)nc2c1)N1CCOCC1
-1.01,Oc1ccccc1C1=Nc2ccccc2N=C(c2cccc(Br)c2)C1
0.58,COc1cccc(C(=O)Nc2c3c(nn2-c2cccc(C)c2C)CS(=O)(=O)C3)c1OC
-1.25,Cc1ccc(NC(=O)Cc2[nH]c3ccccc3c2Sc2ccccc2)cc1
-0.08,O=C(O)C1Cc2c([nH]c3ccccc23)C(c2c(O)ccc3ccccc23)N1 (centres undefined)
-0.4,CCOc1cc(C2C3=C(CCCC3=O)Nc3nc(-c4ccccc4)nn32)ccc1OCc1ccccc1 (centres undefined)
-1.36,CCCn1c(CN2CCOCC2)nc2c1c(=O)n(C)c(=O)n2C
-0.27,O=C1CSC(c2cc3c(cc2[N+](=O)[O-])OCO3)N1c1ccc(Oc2ccc(Cl)cc2)cc1 (centres undefined)
0.03,CCCCOc1ccc(-c2nnc3n2N=C(c2ccc([N+](=O)[O-])cc2)CS3)cc1
0.05,N#Cc1c(N=Cc2cc(Br)ccc2O)sc2c1CCC2
-1.98,COc1ccc(Cl)cc1-n1c(C)nc2cc(C(=O)NCCc3ccccc3)ccc21
1.06,CCC(C)NC(=O)CN1C(=O)CSc2ccccc21 (centres undefined)

Additional entries
Measles inh,Molecule
0.94,COc1ccc(CCNC(=O)C2CCN(S(=O)(=O)c3cccnc3)CC2)cc1OC
0.23,Cc1ccc(CNC(=O)CSc2nc3ccsc3c(=O)n2Cc2ccccn2)cc1
-1.08,O=C(NCCc1ccccc1)c1ccc(C(F)(F)F)cc1
0.86,CC1CCC(NC(=O)C2(C)CCC(=O)N2Cc2cccs2)CC1 (centres undefined)
-0.63,COc1ccc(S(=O)(=O)Nc2ccccc2Cl)c2cccnc12
-1.3,COc1ccc(-n2sc3c(c2=S)-c2cc(C)ccc2N(C)C3(C)C)cc1OC
0.22,O=C1CC(NCc2ccccc2)C(=O)N1c1ccccc1 (centres undefined)
0.1,O=C1c2ccccc2-c2onc3c(N4CCN(c5ccccn5)CC4)cc(Nc4ccc5c(c4)OCO5)c1c23
-0.22,CCOC(=O)c1ccc(NC(=O)COc2ccc3c(C)cc(=O)oc3c2C)cc1
0.5,CCn1c(C)[n+](CC)c2ccc(F)cc21
0.92,COc1ccc(Cl)cc1NC(=O)CSc1cc(=O)n(C)c2cc(Cl)ccc12
-0.01,CCOc1cc2c(cc1OCC)C1C(C(=O)Nc3cc(C)ccn3)c3ccccc3C(=O)N1CC2 (centres undefined)

Carrying on:
Measles inh,Molecule
0.69,CCOc1ccc(NC(=O)c2c(NC(=O)c3cccc(C)c3)sc3c2CCC3)cc1
-1.86,COC(=O)c1nnn(CC(=O)Nc2ccccc2F)c1C(=O)OC
0.58,CCOC(=O)C1=C(C)N(CCO)C(=O)NC1c1cccc(O)c1 (centres undefined)
0.89,O=C(CN1CCN(Cc2ccccc2Cl)C1=O)NCC1CCCO1 (centres undefined)
0.71,Cc1ccc([N+](=O)[O-])cc1NC(=O)c1ccc(Cl)c(S(=O)(=O)N2CCOCC2)c1
0.98,CCOc1ccc(C(=O)N2CCN(c3ccc([N+](=O)[O-])cc3Cl)CC2)cc1Br
-0.16,CCOc1ccc(C(=O)Nc2ccc3oc(-c4ccc(OC)cc4)nc3c2)cc1Cl
-0.28,Cc1ccc(-n2c(C)c3c(C)nnc(C)c3c2C)cc1N
-1.57,Cc1noc(NS(=O)(=O)c2ccc(NC(=O)C3CC3c3ccccc3)cc2)c1C (centres undefined)
0.03,COc1ccc(Br)cc1Cc1nc(C)cc(Cl)n1
-0.69,COc1ccc(OC)c(NC(=O)Cc2cn(C)c3ccccc23)c1
-1.25,O=C(Nc1ccc(-c2nc3ccccc3o2)c(O)c1)c1ccc([N+](=O)[O-])o1

Some of the entries so far, with bars between the fields:
SMILES | Measles inh
CCOC(=O)C1=C(C)N(CCO)C(=O)NC1c1cccc(O)c1 (centres undefined) | 0.58
O=C(Nc1ccc(-c2nc3ccccc3o2)c(O)c1)c1ccc([N+](=O)[O-])o1 | -1.25

(continued)
Measles inh,Molecule
0.32,O=C(Oc1cccc(NC(=O)c2ccccc2Cl)c1)c1ccc([N+](=O)[O-])cc1
-0.1,CCCCOc1ccc(C(=O)NCc2n[nH]c(=S)n2-c2cccc(C)c2)cc1
-0.73,CCOC(=O)c1sc2ncnc(Nc3cc(C)cc(C)c3)c2c1C
-0.84,COc1ccc(-c2c(C(F)(F)F)oc3c(CN4CCCCC4C)c(O)ccc3c2=O)cc1OC (centres undefined)
1.07,Cc1nc2sc(C(=O)N3CCCC3)c(N)c2c(-c2ccc(Br)cc2)c1C(=O)Nc1ccc(Cl)cc1
-0.18,CCOC(=O)C1(C(F)(F)F)N=C2C=CC(Cl)=CN2C(c2ccccc2)=N1 (centres undefined)
-0.09,COC(=O)c1ccc(NC(=O)COc2cccc(C)c2)cc1
-1.01,O=C(Nc1ccc(C(=O)N2CCN(c3ccccc3)CC2)cc1)C1CCCO1 (centres undefined)
-0.02,CC(C)(CC(=O)NC1CCCCCC1)CC1=NS(=O)(=O)c2ccccc2N1
-0.66,O=C(Nc1ccc(S(=O)(=O)Nc2ncccn2)cc1)c1cc(-c2cccs2)nc2ccccc12
0.24,O=C(Nc1nccs1)C1(S(=O)(=O)c2ccc(Cl)cc2)CC1
1.78,COc1ccccc1NC(=O)N1CCOCC1

The listing continues:
Measles inh,Molecule
-0.31,Cc1ccc(CNC(=O)CC2Sc3ccccc3NC2=O)cc1 (centres undefined)
-1.12,O=C(Oc1ccc([N+](=O)[O-])cc1)c1cc2ccccc2oc1=O
-0.68,Cc1ccccc1C(=O)Oc1c(Sc2ccccc2)c(C)nn1C(C)(C)C
-0.96,COc1ccc(CNC(=O)c2cccn3c(=O)c4ccccc4nc23)cc1
-0.65,O=C(NCc1cc2cc(Cl)ccc2[nH]1)c1cccc(COc2ccc(Cl)cc2)c1
-1.27,Cc1nonc1NC(=O)CN1CCOCC1
0.49,CC(=O)c1c(C)nc2sccn12
0.53,O=C1OC2CC3CC1CC(O)(C3)C2 (centres undefined)
-0.71,CC1(C)CC(=O)C2=C(C1)Nc1nc(SCc3ccccc3Cl)[nH]c(=O)c1C2c1ccc(O)cc1 (centres undefined)
0.8,COc1cc2c(=O)n(Cc3ccccc3)c(=O)n(CC(=O)N3CC(C)CC(C)C3)c2cc1OC (centres undefined)
1.37,CCC(=O)Nc1cc(C(=O)O)ccc1Sc1ccc(C)cc1
0.15,Cn1cc(CCCC(=O)NCc2cccs2)c2ccccc21

Going on with the list:
Measles inh,Molecule
0.12,CC1CCN(C(=O)C2(S(=O)(=O)c3ccc(Cl)cc3)CC2)CC1
1.34,O=C(CSc1nc2ccc(N=Cc3ccc(F)cc3)cc2s1)Nc1cccc([N+](=O)[O-])c1
2.46,Cc1c(C2=NC(C)(C)CO2)cccc1[N+](=O)[O-]
0.85,Cc1ccc(C)c(NC2=C(Cl)C(=O)N(c3cccc(C)c3C)C2=O)c1
1.01,N#Cc1ccc(C(c2c(O)[nH]c(=O)[nH]c2=O)c2c(O)[nH]c(=O)[nH]c2=O)cc1
-0.19,Cc1nn(C)c(C)c1S(=O)(=O)N1CCN(c2ccc(F)cc2)CC1
-0.6,COc1cc(C2Nc3ccccc3S(=O)(=O)N2Cc2ccccc2)cc(Br)c1OC (centres undefined)
0.41,CNC(=O)c1c(O)c2cccc3c2n(c1=O)CCC3
-0.9,Cc1cc(C)c(OCC(=O)Nc2ccc(Br)cc2)c(C)c1
-1.45,CCOc1cc(Oc2ccc(C(F)(F)F)cc2Cl)ccc1N1C(=O)C=CC1=O
-0.94,FC(F)(F)c1cc(-c2ccccc2)nc(-n2ccnc2)n1
1.18,Cc1c2c(nc3ccccc13)OC(C)C2 (centres undefined)

(listing goes on)
Measles inh,Molecule
-0.55,Cc1ccc(C(C)C)c(OCC(=O)Nc2sc3c(c2C#N)CC(C)(C)NC3(C)C)c1
3.28,Cc1ccc(S(=O)(=O)NC(C)C(=O)O)cc1 (centres undefined)
0.95,CCN1C(=O)c2ccccc2Sc2ccc(C(=O)NCCN3C(C)CCCC3C)cc21 (centres undefined)
1.68,Cc1c(Cl)c([N+](=O)[O-])nn1CC(=O)O
-0.87,Cn1c(=O)c(=O)n(C)c2cc(S(=O)(=O)N3CCOCC3)ccc21
-0.4,CCN(Cc1ccccc1)C(=O)CSc1ncccc1C(=O)O
0.77,Cc1ccccc1C(=O)Oc1ccc(NC2=NS(=O)(=O)c3ccccc32)cc1
0.47,CCOc1cc(C2/C(=C(\O)c3ccc(C)cc3)C(=O)C(=O)N2c2nncs2)ccc1O (centres undefined)
-0.66,Cc1c(Cc2ccccc2)c(=O)oc2c(C)c(OC(C)C)ccc12
-0.78,O=C(CCCl)N1c2ccccc2CCc2ccccc21
0.01,OCCCNc1ncnc2sc3c(c12)CCCCC3
-0.39,COc1cccc(NC(=O)C2CC(=O)NC(=Nc3ccccc3)S2)c1 (centres undefined)

Going on with the list.
Measles inh,Molecule
0.2,Cc1ccccc1CC1SC(=Nc2ccc(Br)cc2)NC1=O (centres undefined)
0.59,O=C(O)c1ccc(-n2c(C=Cc3ccccc3O)nc3ccccc3c2=O)cc1
-0.24,CC1=C(C(=O)Nc2cccc(C)c2C)C(c2ccc(C)cc2)NC(=S)N1 (centres undefined)
0.16,CCCCn1c(SC(CC)C(=O)Nc2ccc3c(c2)OCO3)nc2ccsc2c1=O (centres undefined)
2.96,CCOC(=O)C1CCN(C(=O)COc2ccc3c(c2)C(=O)CC(C)(C)O3)CC1
0.22,O=C(Nc1ccc2ccccc2c1)c1ccco1
-1.56,Cc1ccc(CNC(=O)c2ccc3c(c2)C2C=CCC2C(c2ccc([N+](=O)[O-])cc2)N3)cc1C (centres undefined)
-0.17,COc1ccc(C(=S)N2CCN(c3ccccc3C)CC2)cc1
-0.54,Cc1cc(C)n(-c2cc(N3CCN(C(=O)c4cccc(Br)c4)CC3)ccc2[N+](=O)[O-])n1
-1.88,COc1ccc(OC)c(NCC(O)Cn2c3ccc(Br)cc3c3cc(Br)ccc32)c1 (centres undefined)
-0.78,O=C(NCCc1ccc(Cl)cc1)c1cc(=O)[nH]c2ccc(S(=O)(=O)N3CCCCC3)cc12
-0.35,O=C(CCS(=O)(=O)c1cccc2nsnc12)NCCc1ccc(Cl)cc1

Part of the list above, with tabs.
mol	Measles inh
CCOC(=O)C1CCN(C(=O)COc2ccc3c(c2)C(=O)CC(C)(C)O3)CC1	2.96
O=C(Nc1ccc2ccccc2c1)c1ccco1	0.22
Cc1ccc(CNC(=O)c2ccc3c(c2)C2C=CCC2C(c2ccc([N+](=O)[O-])cc2)N3)cc1C (centres undefined)	-1.56

The list continues.
Measles inh,Molecule
1.19,COc1ccc(-c2c(C(F)(F)F)oc3c(CN(C)C)c(O)ccc3c2=O)cc1OC
-0.39,CCOc1ccc2c(c1)c1c3n2CCN(C)C3=NCC1
-0.27,CCOc1cccc2cc(-c3cn4c(n3)sc3cc(F)ccc34)c(=O)oc12
-0.71,COc1ccccc1N1C(=O)C2C3C=CC(C3)C2C1=O (centres undefined)
-0.24,Cc1ccc(OCC(O)CN2C(C)CCCC2C)cc1C (centres undefined)
-0.94,CC(C)c1ccc(NC(=O)c2cc(S(=O)(=O)NCc3ccccc3)ccc2F)cc1
1.31,Cc1ccc(N2C(N)=NC(N)=NC23CCCCC3)cc1
-0.66,COc1ccc(NC(=O)c2cc3ccccc3cc2OC)cc1OC
-0.61,COC(=O)C1=CN(CC23CC4CC(CC(C4)C2)C3)C=C(C(=O)OC)C1c1ccccc1OC(C)C
1.22,Cc1ccc(C)n1-c1cc(C(=O)O)ccc1Cl
-0.8,O=C(NCc1ccc(F)cc1)c1cc2nc(-c3cccs3)cc(C(F)(F)F)n2n1
-0.65,CCn1cc(C(=O)Nc2ccc(S(N)(=O)=O)cc2)c(=O)c2ccc(C)nc21

Individual results from the results shown:
Cc1ccc(NC(=O)Cc2[nH]c3ccccc3c2Sc2ccccc2)cc1 in Measles inh is entered as -1.25
COC(=O)c1ccc(NC(=O)COc2cccc(C)c2)cc1 in Measles inh is entered as -0.09
CC(C)(CC(=O)NC1CCCCCC1)CC1=NS(=O)(=O)c2ccccc2N1 in Measles inh is entered as -0.02

The results go on.
Measles inh,Molecule
-0.05,Cc1cccc(CN2CCC(CNC(=O)c3cn(C4CCCC4)c(=O)c4c3c3ccccc3n4C)CC2)c1
-0.32,CC(=O)c1ccc(N2CCN(C(=O)Cc3c(C(=O)O)[nH]c4ccccc34)CC2)cc1
-0.24,COc1ccc(C(=O)N2CCC(C(=O)O)CC2)cc1OC
-0.6,O=C(CC1Sc2ccccc2NC1=O)Nc1ccc(OC(F)F)cc1 (centres undefined)
0.61,NS(=O)(=O)c1ccc(NC(=O)COC(=O)CN2C(=O)c3ccccc3C2=O)cc1
0.52,COc1ccc(C2NC(C(=O)O)CS2)cc1OC (centres undefined)
1.66,CC1CCc2cc(F)cc3c(O)c(C(=O)NCCCN(C)C)c(=O)n1c23 (centres undefined)
-0.69,CCOC(=O)c1c(N)n(C2CC2)c2nc3ccccc3nc12
-0.23,COC(=O)c1c(NC(=O)C(C)Oc2cccc(Cl)c2)sc2c1-c1ccccc1CC2 (centres undefined)
2.19,Cc1nnc(NC(=O)c2ccncc2)s1
-0.64,CC(=O)Oc1cccc(C(=O)Nc2cccc(-c3nc4ccccc4[nH]3)c2)c1
0.07,CCc1nnc(NC(=O)c2ccc(C)c([N+](=O)[O-])c2)s1

Next section.
Measles inh,Molecule
0.48,O=C(NCc1ccc(F)cc1)c1ccc2c(=O)n(CCC3=CCCCC3)c(=S)[nH]c2c1
0.49,C=C(C)Cn1c(-c2ccccc2)n[nH]c1=S
-0.77,Cc1[nH]c2ccccc2c1SCCNC(=O)c1ccc(C(C)(C)C)cc1
-1.1,Cn1c(=O)cc(SCC(=O)N2CCOCC2)c2ccc(Cl)cc21
0.39,COC(=O)c1ccc2c(c1)N(Cc1ccccc1F)C(=O)CS2=O (centres undefined)
-0.1,CC(=O)N(c1ccc2oc3c(c2c1)CCCC3)S(=O)(=O)c1ccc(C(C)C)cc1
-0.23,Cc1cc(Br)ccc1NC(=O)CCNC(=O)Cn1cnc2sc3c(c2c1=O)CCCC3
-0.14,Clc1ccc(C2C=C(c3cccnc3)Nc3nc4ccccc4n32)cc1 (centres undefined)
